# Autofluor counter – compound fluorescence in toxin protease inhibitor counterscreen; compound autofluorescence counterscreen, microsphere flow cytometry; stronger effect = higher value; fluorescence intensity (no concentration beside the values); 3.1% of 360,000 active; AID 624483;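 active means at least 3 SD above the mean of all compounds, about 16000 in these data; inconclusive means too few beads counted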;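 further: 100 nL of 1 mM stock went into each well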
# PrP UTR inh – suppresses PrP 5' UTR mRNA reporter expression; inhibition, % (concentration not given with the values); 0.35% of 340,000 active; cell-based PrP 5' UTR mRNA reporter, plate reader;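 active means every replicate at 50% or more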;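 further: 0 = median of the neutral control wells; tested in H4 reporter cells; numbers are from one replicate; inactives centre near -14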
# BJeLR viability – kills HRASV12-expressing BJeLR cells; inhibition, % (test concentration not listed); 0.17% of 300,000 active; BJeLR (HRASV12) viability, CellTiter-Glo ATP luminescence, 48 h; reference of the scale not given here;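 active means replicate mean above 50%; inconclusive means above 50% but judged a plate artefact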;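 further: 50 nL library stock added to about 25 µL; numbers are from one replicate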
# Sa ugtP lethal – growth inhibition of S. aureus ugtP deletion strain; S. aureus RN4220 ugtP deletion, OD600 growth, 16 h; some inactives read as strong as hits; growth inhibition, % (test concentration not listed); 0.54% of 330,000 active;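 active means z-score under -3 and OD600 up to 0.15 on both plates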;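 further: plate controls were untreated wells for no effect and antibiotic for full effect; wells of about 80 µL received 100 nL stock; the first replicate is given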
# Mtb hypoxia rep – reduces hypoxia-regulated biosensor signal in M. tuberculosis. M. tuberculosis hypoxia-regulated fluorescent reporter, fluorescence. fluorescence inhibition, % (no concentration beside the values). 0.1% of 300,000 active. AID 1159583;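 active means 35 to 45% if threefold the growth effect, above 45% if 1.5-fold the growth effect; inactive means the rest, general growth blockers included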;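 further: wells of about 50 µL received 100 nL stock; 0% = vehicle wells and 100% = reference inhibitor wells; whole bacteria with a GFP reporter of the hypoxia response; strong numbers were not always called active; many hits fall short of the cut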
# RN4220 kill – kills Staphylococcus aureus RN4220. 0.33% of 330,000 active. inhibition, % (no concentration beside the values). S. aureus RN4220 growth, OD600, 16 h. AID 1259311;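 active means z-score of -3 or lower and OD600 up to 0.18 on both plates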;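 further: plate controls were untreated cells for no effect and reference antibiotic for full effect; stock transfer was 100 nL into about 80 µL; one replicate is shown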
# Mtb hypoxia rep growth – further read-out of Mtb hypoxia rep, marked with its call; growth inhibition, %; measured here: M. tuberculosis growth (absorbance);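 0% = vehicle and 100% = reference antibiotic; read after six days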
# An asterisk follows results filed as active; ? = inconclusive; / = no result given; & = joins results of further samples.
SMILES,Autofluor counter,PrP UTR inh,BJeLR viability,Sa ugtP lethal,Mtb hypoxia rep,Mtb hypoxia rep growth,RN4220 kill
CCOC(=O)c1ccc(Nc2cc(C)nc(-c3ccccc3)n2)cc1,3308,-27,18,/,/,/,/
Cc1ccnc2c1NC(=O)c1cccnc1N2C1CC1,5708,-9&-8,8,-5,-10,-8,4.4
C=C(C)c1cccc(C(C)(C)NC(=O)Nc2ccc(C(N)=O)cc2)c1,2346,-16,-3,-6,18,7,6.9
COc1cc(NC(=O)c2c(F)cccc2F)c(Cl)cc1Cl,4272,-9,10,-5,10,4,5.1
CC(=O)N(NC(N)=O)C(C)CC(=O)C1C(C)C=CCC1(C)C (stereo unspecified),/,-11,-3,4,6,0,-0.2
CCOC(=O)c1ccc(S(=O)(=O)n2c(CN3CCCCC3)nc3ccccc32)cc1,3991,-26,-12,27,7,5,5.0
CC1CC(C)CN(C(=O)CSC2=Nc3ccccc3C3=NC(Cc4c[nH]c5ccccc45)C(=O)N23)C1 (stereo unspecified),5733,-20,-12,-6,10,3,2.1
Cc1cc(C)c(OCC(O)CNC(C)(C)C)c(C)c1 (stereo unspecified),2682,-12,2,-1,10,5,1.9
Cc1ccc(S(=O)(=O)N(C)c2ccc(OCC(=O)N3CCCC(C(F)(F)F)C3)cc2)cc1 (stereo unspecified),6867,-6,-3,-18,0,0,3.2
O=C(Nc1ccc([N+](=O)[O-])cc1)c1nc[nH]c1C(=O)NC1CCCCC1,2597,9,-5,-30,0,1,-2.3
O=C(CN1CCOCC1)Nc1c(C(=O)C2CC2)oc2ccccc12,2057,-3,-4,5,9,7,4.8
CC1CC=C2C(C#N)=C(N)C(C#N)(C#N)C(c3cccs3)C2C1 (stereo unspecified),9080,-20,10,-15,10,13,14
CCOc1ccccc1NC(=S)N1CCN(c2ccc(OC)cc2)CC1,4063,-23,-7,4,-2,-13,2.5
COc1ccc(-n2nnnc2SCC(=O)NC2CCCC2)cc1OC,3518,-12,1,4,0,7,3.7
COc1cc(C(=O)NNC(=O)/C=C/c2ccco2)cc(OC)c1OC,7030,1,/,3,-3,4,3.0
CCc1c(C)sc(NC(=O)CN2CCN(C(=O)c3ccco3)CC2)c1C(=O)OC,5136,-7,-4,6,1,1,7.4
COc1ccc(Cc2nnc(NN=Cc3ccc(N(C)C)cc3)[nH]c2=O)cc1OC,/,/,/,13,4,5,4.3
O=C(CSc1nnc(-c2cnccn2)n1Cc1ccco1)c1ccc(Cl)cc1,9952,-4,2,-29,-9,9,0.4
CCCc1nc2c(C)ccc(C)c2c(N)c1CC,22777*,-6,3,5,5,4,5.9
Cc1ccccc1C(=O)c1cccn1CC(=O)NCc1ccc(F)cc1,5329,-16,0,2,-1,3,2.7
CC(=O)Nc1c(Cl)c(Cl)c2c(c1Cl)Cc1cc(Cl)ccc1-2,3521,-9,/,49,7,4,13
CCN(CC)C(=O)c1cc(-c2ccccc2OC)on1,10530,-28,7,-2,15,10,8.2
O=S(=O)(c1cccs1)N1CCCc2cccc(O)c21,9158,-33,-1,-4,12,9,9.5
COc1ccccc1-c1ccc(=O)n(CC(=O)NCc2ccco2)n1,4880,-9,-22,1,2,-4,8.0
O=S(=O)(c1ccc(S(=O)(=O)N2CCN(Cc3ccccc3)CC2)cc1)N1CCOCC1,/,/,12,7,5,-1,2.0
Cc1cc(C)c(C#N)c(N2CCOCC2)n1,5005,-18,4,-5,/,/,-1.9
CCOC(=O)c1ccc(S(=O)(=O)N2CCC(C(=O)OCC)CC2)cc1,11520,-18,-3,9,13,4,2.2
CC1(C)CC(=O)C(C=NCCN2CCN(C(=S)Nc3ccccc3)CC2)=C(O)C1,9148,2,-4,0,2,10,1.0
CCN(CC)C(=O)Cn1cnc2sc(C(=O)NCCCN3CCOCC3)c(C)c2c1=O,4074,-2,-2,3,-15,-3,2.2
CCc1ccc(N(C(=O)c2csnn2)C(C(=O)NC2CCCCC2)c2ccncc2)cc1 (stereo unspecified),3928,-24,-8,6,6,3,1.0
Cc1ccccc1NC(=O)CN1C(=O)S/C(=C\c2ccc(-c3cccc(C(=O)O)c3C)o2)C1=O,5029,-13,5,/,/,/,/
CCOC(=O)c1cc(NCc2cccs2)ccc1N1CCOCC1,3313,-19,-5,5,5,1,7.9
COc1ccc(N2C(=O)C3CC=C(Cl)CC3C2=O)cc1 (stereo unspecified),8876,-12,-4,13,8,3,7.9
COc1ccc(Cl)cc1NC(=O)CN1CCN(S(=O)(=O)N2CCC(C)CC2)CC1,3286,7,-4,-4,-3,4,-3.4
Nc1ccc(S(=O)(=O)c2ccc(NC(=O)c3cccnc3)cc2)cc1,3226,4,/,8,17,10,2.8
C=CCn1c(SCC(=O)Nc2cc3oc4ccccc4c3cc2OC)nnc1-c1cnccn1,6117,-49,5,-7,-1,9,36
Cc1nc2cc(Cl)ccc2c(=O)n1Cc1ccncc1,4313,-11,-2,2,13,-3,0.6
O=C(CC(=O)Nc1ccc(Cl)cc1)NN=Cc1cccc(F)c1,/,/,/,13,11,-2,1.6
CCn1cc([N+](=O)[O-])c(C(=O)N2CCOCC2)n1,2353,-11,4,-2,-13,-1,-2.6
CS(=O)(=O)N1N=C(c2cccs2)CC1c1ccc(Cl)o1 (stereo unspecified),2913,-21,2,4,16,7,7.0

# By substructure: the entries above with a nitro group on carbon (2)
SMILES,Autofluor counter,PrP UTR inh,BJeLR viability,Sa ugtP lethal,Mtb hypoxia rep,Mtb hypoxia rep growth,RN4220 kill
O=C(Nc1ccc([N+](=O)[O-])cc1)c1nc[nH]c1C(=O)NC1CCCCC1,2597,9,-5,-30,0,1,-2.3
CCn1cc([N+](=O)[O-])c(C(=O)N2CCOCC2)n1,2353,-11,4,-2,-13,-1,-2.6

# The list continues:
SMILES,Autofluor counter,PrP UTR inh,BJeLR viability,Sa ugtP lethal,Mtb hypoxia rep,Mtb hypoxia rep growth,RN4220 kill
CCn1nc(C)c(C(=O)Nc2cc(Oc3cc(C)cc(C)c3)cc([N+](=O)[O-])c2)c1C,22749*,-13,12,-10,0,-3,-3.0
CCn1c2ccccc2c2cc(NC(=O)c3ccc(Br)o3)ccc21,4789,7,4,-20,1,6,2.1
Cc1cccc(N2C(=O)N3[C@H](c4ccc(Br)cc4)[C@@H]4C(=O)N(C(C)(C)C)C(=O)[C@@H]4[C@]3(C)C2=O)c1,3813,-9,2,/,/,/,/
Cn1c(=O)[nH]c(=O)c2c1nc(SCCCO)n2CCCc1ccccc1,3036,-23,9,8,2,2,2.3
COc1ccc(C2C3C=CCC(c4cccc(-c5ccc(C)cc5)c4)C3C(=O)N2Cc2ccccc2)cc1Cl (stereo unspecified),3764,-6,3,8,-5,5,14
CCN(CC)C(=O)C1=C(C)NC(=S)NC1c1cn(-c2ccccc2)nc1-c1ccc(Cl)cc1 (stereo unspecified),23563*,-22,-2,-5,-4,5,3.2
O=C1OCCN1C(=O)C1C(c2ccc(F)cc2)C(c2ccc(F)cc2)=NN1c1ccc(Br)cc1 (stereo unspecified),/,/,/,5,2,2,-3.7
NC(=O)[C@@H]1CCCCNc2c(F)cc([N+](=O)[O-])cc2C(=O)N[C@@H](CC(=O)O)C(=O)NCC(=O)N1,3270,-17,0,/,/,/,/
O=C(CN1CCN(C(=O)C2CC2)CC1)Nc1cc(C(F)(F)F)cc(C(F)(F)F)c1,3809,-4,/,-15,3,3,-1.8
Cn1c(=O)c2c(nc(Br)n2Cc2ccc3ccccc3c2)n(C)c1=O,20690*,-12,11,1,6,13,-1.3
CSc1ncc(Br)c(N2CC2)n1,3894,-29,/,-4,7,15,6.9
Cc1nc2ccccc2c2oc(C(=O)Nc3ccc(C(C)C)cc3)cc12,2025,6,-9,-12,2,9,-0.3
COC(=O)C=CC(=O)NCc1ccco1,/,/,/,0,11,4,4.3
O=C(O)c1cn(-c2ccccc2)nc1-c1ccc(F)cc1,5946,-16,-6,-3,0,-3,4.8
Cn1nccc1C(=O)N(CCN1CCCCC1)CC1CCCN(C2CCCC2)C1 (stereo unspecified),6091,-21,9,3,6,3,1.8
CC(C)(C)c1ccc(NN=C(C#N)S(=O)(=O)C(C)(C)C)cc1,/,/,/,2,3,-7,0.6
CCN(C(=O)COC(=O)/C=C/c1ccc(F)cc1)C1CCCCC1,3128,-2,/,4,7,2,3.1
Cn1c(Cl)c(C(=O)Nc2ccc(Cl)cc2)c2ccccc21,2652,-32,/,-12,9,8,0.1
O=C(NCCN1CCOCC1)c1ccncc1,3985,-21,-10,3,9,8,6.1
CS(=O)(=O)c1ccc(C(=O)NCC2(N3CCOCC3)CCCCC2)cc1,4163,-6,/,4,18,9,3.9
O=C(CCCc1cccs1)Nc1nc(-c2ccc(F)cc2)cs1,2235,-24,5,16,-4,-3,3.7
Cn1c(Sc2ccc([N+](=O)[O-])cc2C(F)(F)F)nnc1-c1ccccc1,3769,-7,-1,-8,5,19,0.1
Cc1ccc2cc3cc(C(=O)NCCCN4CCCCCC4)oc3nc2c1,2686,-17,1,-10,/,/,-1.3
O=C(O)c1ccc([N+](=O)[O-])c(CS(=O)(=O)c2ccccc2)c1,3885,-19,-10,-3,0,1,-3.7
CC(=O)c1ccc(N2C(=O)[C@@H]3C(C(=O)CCN4C(=O)c5ccccc5C4=O)=NN[C@@H]3C2=O)cc1,1956,-7,0,0,10,5,2.1
O=C(NCc1cccnc1)Nc1ccccc1C(F)(F)F,4829,-36,1,2,5,7,2.7
COC(=O)C(C)Sc1nc2c(c(-c3ccc(OC)cc3)c1C#N)-c1ccccc1C2=O (stereo unspecified),?,-9,9,-11,13,5,4.4
COc1ccc(-c2nnc(SCc3cccnc3)o2)cc1,3588,-30,-20,1,/,/,1.5
CC(C)C(c1nnnn1C1CCCC1)N1CCCCC1 (stereo unspecified),4514,-5,-1,10,/,/,9.0
COc1ccc(C(=O)COC(=O)C(CCSC)NC(=O)COc2ccccc2)c(OC)c1 (stereo unspecified),6307,-15,3,-2,-2,-18,-0.8
COc1cc2c(cc1OC)C(c1ccccc1[N+](=O)[O-])N(C(C)=O)CC2 (stereo unspecified),3919,-8,1,1,8,-2,4.2
O=c1[nH]nc(N/N=C/c2ccc(Cl)cc2Cl)c(=O)[nH]1,3697,-19,-3,/,/,/,/
CC1(C)CC(=O)C(C(C2=C(O)CC(C)(C)CC2=O)c2ccc(O)c([N+](=O)[O-])c2)=C(O)C1,3794,-8,-5,-7,23,34,4.1
O=C(COc1ccc(/C=N/NC(=O)c2cc3ccccc3o2)cc1Cl)Nc1ccccc1,5305,-10,26,/,/,/,/
Cc1nc(CNC(=O)C2CCC(=O)N(CCc3ccc(Cl)cc3)C2)sc1C (stereo unspecified),6631,-18,-9,/,/,/,/
COc1ccc(S(N)(=O)=O)cc1C(=O)NCC1(N2CCCCC2)CCCCC1,7302,6,1,13,1,3,4.9
Cc1ccc(NC(=O)Cn2ccc(=O)[nH]c2=O)cc1,3410,-25,-7,-8,10,-1,3.7
Cc1ccc(C=Nn2nnnc2N)cc1[N+](=O)[O-],/,/,/,4,6,1,3.9
COc1ccccc1S(=O)(=O)Nc1ccc(S(=O)(=O)Nc2nccs2)cc1,2859,-5,/,11,7,2,9.2
Cc1ccc(C)n1-c1ccc(C(=O)N2CCC(C(N)=O)CC2)cc1,4517,-16,-5,7,5,12,0.5
Cc1ccc(C(=O)NC(C)c2ccc(-n3ccnc3)cc2)cc1 (stereo unspecified),2966,-6,0,3,11,10,0.9
Cc1cc(C)c(C(N)=O)c(Nc2cccc(Cl)c2)n1,9200,-4,-8,-9,-2,6,-4.8
Cc1nc2c(sc3nc4c(cc32)COC(C)(C)C4)c(=O)n1Cc1ccccc1,2092,-33,6,6,/,/,0.2
CCN(CC)C(=O)Oc1nnc(SC(C)C)n1-c1ccc(Cl)c(Cl)c1,5795,-27,-2,-5,-2,1,6.1
O=C(CCN1C(=O)[C@@H]2Cc3ccccc3CN2C1=O)N[C@H](Cc1ccccc1)C(=O)O,5161,-9,-7,-10,/,/,0.2

# Entries of single compounds as entered above.
# `O=C(CCN1C(=O)[C@@H]2Cc3ccccc3CN2C1=O)N[C@H](Cc1ccccc1)C(=O)O` reads Autofluor counter: 5161; PrP UTR inh: -9; BJeLR viability: -7; Sa ugtP lethal: -10; Mtb hypoxia rep: /; Mtb hypoxia rep growth: /; RN4220 kill: 0.2
# `Cc1cc(C)c(C(N)=O)c(Nc2cccc(Cl)c2)n1` reads Autofluor counter: 9200; PrP UTR inh: -4; BJeLR viability: -8; Sa ugtP lethal: -9; Mtb hypoxia rep: -2; Mtb hypoxia rep growth: 6; RN4220 kill: -4.8

# Screening data: PubChem, several laboratories
